Screening data deposited in PubChem by National Center for Advancing Translational Sciences (NCATS).
Menin MLL FP FL – menin-MLL binding inhibition, fluorescein peptide. 290,000 tested, under 10 active. FP activity change, % at 61.4 µM. Fluorescence polarization, fluorescein-MLL peptide displacement from menin. AID 1766; inconclusive = falling polarisation curve, or a change in total fluorescence; inactive = total fluorescence flat and polarisation flat or rising; no compound was filed as active; the % refers to the polarisation; negative = inhibition;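 note: % of control where 0% means no effect; inhibitors lower the polarisation; unlabelled MLL peptide was the positive control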
ClpP mod – qHTS Assay for Activators of ClpP; AID 651965, 2013; ATP-dependent Clp protease proteolytic subunit (Bacillus subtilis (strain 168)), P80244; purified B. subtilis ClpP, FRET peptide cleavage, 20 min; Potency, µM (highest dose often 57.5 µM), for the others: at the top dose activity change, negative = active; 340,000 compounds, 1.9% hits; active = well fitted falling curve with a large enough effect; inconclusive = small, poorly fitted or top-dose-only effect; inactive = no such curve, though single readings can be large or run the other way; note: potency is the fitted concentration of half-maximal effect; the source files actives as falling curves though it sought activators and does not explain the sign; nearly all actives have a fitted effect of over 65% in size; many hits overshoot -100%
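ClpP 10 microg/mL final, pH 8 Tris/KCl buffer with BSA, glycerol, Tween-20; compound pinned in; FRET-FV substrate; RT 20 min; Ex320/Em430; ΔFRET vs ADEP 5.8 microM, DMSO, no enzyme.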
TRPV1 PAM – human TRPV1 potentiation; Q8NER1; TRPV1-expressing cells, Fluo-8 calcium influx, capsaicin EC20 potentiation; host cell line not named in the record; control for the full effect not named in the record; potentiation, % at 8.33 µM; 320,000 compounds, 0.02% hits; AID 540277; active means potentiation above 80%; inconclusive means 30% to 80%; inactive means below 30%; note: 0% is about no effect
Target sequence (Q8NER1 whole entry, looked up): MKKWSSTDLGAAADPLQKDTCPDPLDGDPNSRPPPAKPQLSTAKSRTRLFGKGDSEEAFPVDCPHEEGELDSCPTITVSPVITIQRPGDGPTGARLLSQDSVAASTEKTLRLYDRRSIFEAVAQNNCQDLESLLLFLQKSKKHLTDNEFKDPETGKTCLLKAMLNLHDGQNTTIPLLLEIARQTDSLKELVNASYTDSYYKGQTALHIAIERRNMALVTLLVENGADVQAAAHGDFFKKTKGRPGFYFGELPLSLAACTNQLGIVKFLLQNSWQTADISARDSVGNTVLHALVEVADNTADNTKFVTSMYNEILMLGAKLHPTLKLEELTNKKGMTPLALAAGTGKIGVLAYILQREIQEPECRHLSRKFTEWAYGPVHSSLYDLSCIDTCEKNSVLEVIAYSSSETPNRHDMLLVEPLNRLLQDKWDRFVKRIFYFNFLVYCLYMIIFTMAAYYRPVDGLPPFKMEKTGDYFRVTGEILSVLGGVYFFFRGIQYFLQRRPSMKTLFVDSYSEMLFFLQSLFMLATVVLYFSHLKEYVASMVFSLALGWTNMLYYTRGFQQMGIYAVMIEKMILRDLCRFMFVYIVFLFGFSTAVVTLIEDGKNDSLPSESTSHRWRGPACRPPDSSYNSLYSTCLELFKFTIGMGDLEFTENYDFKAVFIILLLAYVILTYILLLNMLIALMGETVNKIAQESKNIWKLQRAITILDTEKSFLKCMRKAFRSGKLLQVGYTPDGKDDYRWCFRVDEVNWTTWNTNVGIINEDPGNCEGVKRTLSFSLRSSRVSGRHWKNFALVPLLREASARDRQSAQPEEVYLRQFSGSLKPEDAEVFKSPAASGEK
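Cells expressing TRPV1 were dye-loaded with Fluo-8 and read kinetically: 10 s baseline, 3 min after compound (agonist portion), then 2 min after EC20 capsaicin (allosteric enhancer portion). Calcium-bound dye fluorescence at 480/520 nm.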
D2 PAM – human D2 receptor positive allosteric modulation. P14416. DiscoveRx D2 beta-arrestin cells, luminescence, 90 min; 100% = 57 uM dopamine signal. potentiation, % (test concentration not listed). 360,000 compounds, 0.23% hits; active = potentiation of 50% or more; inconclusive = 30% to 50%; inactive = 30% or less;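 note: compound concentration not given in the record; tested on top of an EC20 dose of dopamine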
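PathHunter beta-arrestin assay in DiscoveRx D2 cells. Compounds were added with an EC20 of dopamine (50 nM final) for 90 min at 37 deg C. Luminescence was read 1 h after detection reagent, with 57 uM dopamine as the EC100 control.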
gsp antagonist – gsp mutant antagonism | gsp-mutant cells, cAMP HTRF, 30 min; control for the full effect not named in the record | Potency, µM (series often up to 76.9 µM), for inactives: at the top dose activity change, negative = inhibition, usual class: inhibitors | 340,000 compounds, 0.4% hits; active = falling curve of any shape with a large fitted effect; inconclusive = falling curve, mostly with a smaller effect; inactive = flat or rising curve; cell line not stated here;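 note: intracellular cAMP measured with PDE inhibitor Ro 20-1724 present during compound exposure; potency is the fitted concentration of half-maximal effect; % is set by controls: 0 for no effect and ±100 for the full control effect; nearly all actives have a fitted effect of over 65% in size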
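Cells in G418 medium, seeded 16-24 h, 37C; buffer exchange to DPBS + 1 mM CaCl2, 0.5 mM MgCl2, 0.05% BSA; cpds in DMSO + […] (300 uM stock), 30 min 37C; HTRF cAMP detection.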
Sfp inh – inhibitors of Bacillus subtilis Sfp phosphopantetheinyl transferase. Potency, µM, for inactives: max response, negative = inhibition, actives largely listed as inhibitors. Q9F4F7. Biochemical Sfp PPTase activity, qHTS. 310,000 compounds, 3.5% hits; active = well fitted inhibition curve with a large enough effect; inconclusive = small, poorly fitted or top-dose-only effect, or another doubt; inactive = no such curve, though single readings can be large or run the other way;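 note: the enzyme is Sfp with the accession as filed and its product quenches rhodamine fluorescence; potency is the fitted concentration of half-maximal effect; 0% = enzyme reaction without inhibitor and -100% = no enzyme wells; top concentration of the series not given in the record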
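Step 1, compound plus 15 nM Sfp-PPTase, 15 min, room temperature. Step 2, add rhodamine-CoA (5 uM) and BHQ-2-YbbR (12.5 uM). Step 3, read 525/598 nm fluorescence at 0 and 30 min.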
gsp agonist – activates gsp, the McCune-Albright syndrome mutation; 340,000 compounds, 0.13% hits; gsp mutant cells, cAMP HTRF, 30 min; control for the full effect not named in the record; Potency, µM (series often up to 76.9 µM), for inactives: at the highest dose activation (cAMP increase), hits mostly activators; active = well fitted activation curve with a large enough effect; inconclusive = small, poorly fitted or top-dose-only effect, or another doubt; inactive = no such curve, though single readings can be large or run the other way; cell line not stated here;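 note: phosphodiesterase inhibitor Ro 20-1724 added with compounds to block cAMP breakdown; potency is the fitted concentration of half-maximal effect; nearly all actives have a fitted effect of over 60% in size; about a fifth of the inactives were tested at one dose only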
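Cells in DMEM/10% FBS with G418 were pretreated with compounds in DMSO plus […] (300 uM stock) for 30 min at 37C. cAMP was measured by HTRF (cAMP-d2 plus anti-cAMP antibody-K) after 30 min at room temperature.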
* marks the source's active call; other numbers are inactive results; ? = inconclusive; / = no result given; [ ] = dose if it differs, or a comment.

[1] CCCCn1c2nc3ccccc3nc2c2c(=O)n(CC(C)C)cnc21
[2] CCNc1nc(CC)nc2c1oc1ccccc12
[3] CCOc1ccc(C(=O)N2CCc3cc(OC)c(OC)cc3C2)cc1OCC
[4] O=C(Cc1ccc(Cl)cc1)Nc1cccc(-c2nnc(-c3ccco3)o2)c1
[5] c1ccc(N2CCN(c3nnc(Cc4cccnc4)c4ccccc34)CC2)nc1

assay / compound	1	2	3	4	5
Menin MLL FP FL	/	-2.6	1.9	-1.0	4.1
ClpP mod	-13%	-11%	-3.1%	?	-1.3%
TRPV1 PAM	/	-20	-1	/	-10
D2 PAM	-8	-9	14	1	4
gsp antagonist	8%	3%	-6%	4%	-18%
Sfp inh	/	3%	-1%	-21%	6%
gsp agonist	?	24%	0%	10%	3%

[6] c1ccc(CN=C2NN=C(c3cc4ccccc4o3)CS2)cc1
[7] COc1ccc(OC)c(C(=O)Nc2c(O)ccc3ccccc23)c1
[8] CN1CCN(C(=O)c2cc(COc3ccccc3)on2)[C@@H](c2ccccc2)C1
[9] CC1=C(C)C(OCCCl)N(c2cc(O)c(Cl)cc2F)C1=O (stereo unspecified)
[10] CN(C(=O)CSc1nc2ccc(Br)cc2c(=O)n1Cc1ccco1)C1CCS(=O)(=O)C1 (stereo unspecified)

assay / compound	6	7	8	9	10
Menin MLL FP FL	3.2	/	-3.4	-0.6	2.3
ClpP mod	-3.9%	-0.9%	-1.3%	-0.8%	/
TRPV1 PAM	18	/	-23	3	-15
D2 PAM	-10	10	-7	-2	-2
gsp antagonist	-14%	-7%	-7%	-5%	-13%
Sfp inh	-7%	/	3%	0%	-9%
gsp agonist	-4%	0%[15.4 µM]	-18%	?	-2%[15.4 µM]

[11] CC1SCC(=O)N(CC(=O)Nc2ccc3c(c2)OCO3)C1=O (stereo unspecified)
[12] CCOC(=O)C1=C(COC(=O)CNC(=O)c2cccc(C)c2)NC(=O)NC1C (stereo unspecified)
[13] Cc1ccc(NCc2ccc(C)s2)cc1
[14] Clc1ccccc1/C=C/C=N/Nc1nc(N2CCOCC2)nc(N2CCOCC2)n1
[15] O=C(NCCCN1CCOCC1)C(=O)N/N=C/c1ccccc1

assay / compound	11	12	13	14	15
Menin MLL FP FL	0.9	/	-3.7	1.9	-2.5
ClpP mod	0.0%	-1.3%	/	0.7%	-0.6%
TRPV1 PAM	0	13	1	-10	23
D2 PAM	1	21	/	-5	-4
gsp antagonist	7%	10%	/	13µM*	0%
Sfp inh	12%	/	-4%	-13%	5%
gsp agonist	-49%	-29%	/	-7%[15.4 µM]	?

A draw from above in order of formula weight, smallest number first:
[15] O=C(NCCCN1CCOCC1)C(=O)N/N=C/c1ccccc1
[11] CC1SCC(=O)N(CC(=O)Nc2ccc3c(c2)OCO3)C1=O (stereo unspecified)
[9] CC1=C(C)C(OCCCl)N(c2cc(O)c(Cl)cc2F)C1=O (stereo unspecified)
[14] Clc1ccccc1/C=C/C=N/Nc1nc(N2CCOCC2)nc(N2CCOCC2)n1
[10] CN(C(=O)CSc1nc2ccc(Br)cc2c(=O)n1Cc1ccco1)C1CCS(=O)(=O)C1 (stereo unspecified)

assay / compound	15	11	9	14	10
Menin MLL FP FL	-2.5	0.9	-0.6	1.9	2.3
ClpP mod	-0.6%	0.0%	-0.8%	0.7%	/
TRPV1 PAM	23	0	3	-10	-15
D2 PAM	-4	1	-2	-5	-2
gsp antagonist	0%	7%	-5%	13µM*	-13%
Sfp inh	5%	12%	0%	-13%	-9%
gsp agonist	?	-49%	?	-7%[15.4 µM]	-2%[15.4 µM]

The results go on:
[16] C=CCn1c(SCC(=O)Nc2ccccc2)nc2scc(-c3cccs3)c2c1=O
[17] CCN(CC)C(=O)CSc1ncnc2sc(-c3ccccc3)cc12
[18] Nc1nonc1C(=O)N/N=C\c1cc2c(cc1Cl)OCO2
[19] O=Cc1c(Cl)nc2ccccn2c1=O
[20] COc1ccc(C(=O)NCc2ccc3c(c2)OCO3)c(OC)c1

assay / compound	16	17	18	19	20
Menin MLL FP FL	1.4	0.7	/	12	-2.2
ClpP mod	-26%	?	-1.9%	/	0.8%
TRPV1 PAM	-1	-2	13	1	-14
D2 PAM	9	-5	-6	0	-4
gsp antagonist	6%	40µM*	14%	3%	5%
Sfp inh	-1%	-14%	3%	?	-12%
gsp agonist	?	6%	?	?	-4%[15.4 µM]

[21] CC(=O)Nc1ccc(S(=O)(=O)NCC(=O)OCC(=O)N2CC(C)OC(C)C2)cc1 (stereo unspecified)
[22] CCc1ccc2c(CN3CCN(Cc4ccccc4)CC3)cc(=O)oc2c1
[23] COc1ccc(-c2csc(NC(=O)C3CCN(c4ncnc5sc(C)c(C)c45)CC3)n2)cc1OC
[24] O=c1[nH]c(=O)n(Cc2ccco2)c2c1C(C(F)(F)F)(C(F)(F)F)N=C(CCc1ccccc1)N2
[25] O=CN(Cc1nc2ccccc2[nH]1)c1ccc(C(=O)O)cc1

assay / compound	21	22	23	24	25
Menin MLL FP FL	/	3.2	/	3.6	/
ClpP mod	0.1%	/	/	19%	/
TRPV1 PAM	/	2	-5	0	/
D2 PAM	-3	-24	0	-6	-6
gsp antagonist	9%	-4%	?	-18%	0%
Sfp inh	/	-2%	/	-11%	/
gsp agonist	-44%[inhibitor]	29%[15.4 µM]	8%[15.4 µM]	?	-8%

[26] Cc1ccc(S(=O)(=O)NC(=O)Nc2ccccc2)cc1
[27] Cc1onc(-c2c(F)cccc2Cl)c1C(=O)OCC(=O)N(C)c1ccccc1
[28] O=C(O)C1=C[C@H](c2csc3ccccc23)C[C@H](OCCCCO)O1
[29] COc1ccc(OCc2ccc(/C=N\NC(=O)c3sccc3C)o2)cc1
[30] COc1ccc(C(=O)Nc2ccc(C)cn2)cc1S(=O)(=O)N1CCCc2ccccc21

assay / compound	26	27	28	29	30
Menin MLL FP FL	5.5	/	8.5	/	/
ClpP mod	/	1.9%	-5.8%	21%	-13%
TRPV1 PAM	4	/	23	4	-8
D2 PAM	-35	0	-7	-10	2
gsp antagonist	/	/	10%	-2%	?
Sfp inh	-5%	/	10%	19%	/
gsp agonist	-4%[15.4 µM]	-16%	/	14%	6%

[31] Cc1ccc(N2CC(C(=O)Nc3ccc(S(=O)(=O)Nc4nccs4)cc3)CC2=O)cc1 (stereo unspecified)
[32] Cc1nnc(C)n1/N=C/c1cccn1C
[33] CC(C)n1cnc2c(NCc3ccc(S(N)(=O)=O)cc3)nc(NCc3ccc(S(N)(=O)=O)cc3)nc21
[34] c1ccc(OCc2nn3c(Cn4nnc5ccccc54)nnc3s2)cc1

assay / compound	31	32	33	34
Menin MLL FP FL	2.4	-1.0	6.1	5.9
ClpP mod	/	-1.0%	2.5%	-2.0%
TRPV1 PAM	-4	5	-8	5
D2 PAM	-6	8	-6	1
gsp antagonist	4%	4%	9%	-14%
Sfp inh	13%	20%	2%	13µM*
gsp agonist	32%	18%	/	?
